Assay outcomes deposited in PubChem by National Center for Advancing Translational Sciences (NCATS).
miR-21 reporter = raises the signal of a miR-21 reporter | HeLa miR-21 FLuc reporter, luciferase, 48 h | Potency, µM (top dose mostly 38.3 µM), for the others: at the highest dose reporter change, positive = more light | 340,000 tested, under 10 active; active = well fitted rising curve with a large enough effect; inconclusive = small, poorly fitted or top-dose-only effect; inactive = no such curve, though single readings can be large or run the other way;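 note: % of control where 0% means no effect; miR-21 action dims this reporter so a rising signal means less miR-21 action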
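HeLa miR-21-FLuc reporter line, endogenous miR-21; 2000 cells/well in DMEM/10% FBS; compound titration up to ~40uM final, 48 h, 37 degree Celsius; luciferase detection reagent, 15 min lysis, CCD luminescence.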
GLA inh pH 4.5 = blocks human alpha-galactosidase A at pH 4.5 | purified enzyme, 4-MU-alpha-Gal fluorescence, pH 4.5 | 230,000 tested, under 10 active | P06280 | activity change, negative = inhibition, % at 105 µM; inconclusive = small, poorly fitted or top-dose-only inhibition, or a rising curve; inactive = flat fitted curve, though single readings scatter; no compound was filed as active;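 note: 0% = full activity with enzyme and -100% = basal without enzyme; dose as in the result columns while the protocol names 77 µM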
Rango release inh = inhibition of RanGTP-driven Rango-importin beta dissociation; O95149+P62826; Biochemical FRET Rango-importin beta, RanGTP-induced dissociation; hit rate 0.071% among 340,000; Potency, µM (top dose mostly 46.1 µM), for inactives: top-dose activity change, negative = inhibition; active means falling FRET ratio curve, often poorly fitted, with flat reads before Ran was added; inconclusive means other falling curves, or compound fluorescence or quenching; inactive means flat or rising ratio curve;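 note: potency is the fitted concentration of half-maximal effect; % of control where 0% means no effect; nearly all actives have a fitted effect of over 45% in size; -100% = wells without RanGTP and RCC1; the record marks most hits as doubtful in a second field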
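Rango (0.1 uM)–importin beta (0.25 uM) complex; RanGTP-RCC1 trigger; 45 min RT; CFP/YFP FRET read.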
Rango complex inh = Rango-importin beta binding inhibition; Q14974; Rango CFP/YFP FRET sensor + importin beta, 45 min; Potency, µM (doses to about 92.2 µM), without a hit: top-dose inhibition of complex formation; hit rate 0.031% among 340,000; AID 540263; active = rising FRET ratio curve, often small or poorly fitted; inconclusive = mostly compound fluorescence or quenching in the first reads; inactive = flat curves in all reads;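 note: potency is the fitted concentration of half-maximal effect; 0% = DMSO wells and 100% = buffer wells lacking importin beta; nearly all actives have a fitted effect of over 15% in size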
Target sequence (Q14974 whole entry, looked up): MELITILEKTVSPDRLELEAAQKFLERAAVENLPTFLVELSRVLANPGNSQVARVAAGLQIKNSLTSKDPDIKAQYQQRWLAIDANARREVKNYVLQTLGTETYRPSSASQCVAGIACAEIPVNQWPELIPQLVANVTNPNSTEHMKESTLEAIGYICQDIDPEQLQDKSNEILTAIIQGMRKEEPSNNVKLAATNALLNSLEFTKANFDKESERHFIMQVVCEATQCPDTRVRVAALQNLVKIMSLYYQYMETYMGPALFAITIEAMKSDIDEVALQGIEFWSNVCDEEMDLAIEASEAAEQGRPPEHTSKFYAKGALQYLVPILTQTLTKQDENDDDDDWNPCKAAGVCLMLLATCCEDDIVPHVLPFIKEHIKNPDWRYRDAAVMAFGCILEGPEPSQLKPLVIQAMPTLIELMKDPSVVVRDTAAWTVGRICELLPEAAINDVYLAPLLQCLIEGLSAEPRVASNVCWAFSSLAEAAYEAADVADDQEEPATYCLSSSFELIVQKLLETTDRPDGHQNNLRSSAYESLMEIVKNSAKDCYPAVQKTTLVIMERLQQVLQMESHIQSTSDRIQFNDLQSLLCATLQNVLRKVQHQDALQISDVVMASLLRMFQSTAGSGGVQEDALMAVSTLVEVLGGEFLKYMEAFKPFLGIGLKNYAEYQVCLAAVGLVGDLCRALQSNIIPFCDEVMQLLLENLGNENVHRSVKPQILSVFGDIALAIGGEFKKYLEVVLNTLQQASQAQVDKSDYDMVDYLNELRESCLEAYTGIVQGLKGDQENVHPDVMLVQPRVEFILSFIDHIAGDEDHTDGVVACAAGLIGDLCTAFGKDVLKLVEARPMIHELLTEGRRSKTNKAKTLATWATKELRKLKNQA
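FRET biosensor Rango (snurportin 1 IBB between N-terminal EYFP and C-terminal Cerulean), 50 nM in PBS/1 mM DTT/0.02% Tween-20/0.1% BSA, preincubated 5 min RT with compound; 0.125 microM importin beta added, 45 min RT, CFP/YFP FRET ratio read.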
Numbers without * were called inactive; ? = inconclusive; / = no result given; [ ] = dose if it differs, or a comment. An excerpt; rates above refer to the full screens.

Molecule	miR-21 reporter	GLA inh pH 4.5	Rango release inh	Rango complex inh
Cc1[nH]c2ccccc2c1C(=O)COC(=O)c1ccc([N+](=O)[O-])s1	0%	-1	-20%	-0.4%
Cn1c(CCC(=O)OCC(=O)NCc2ccccc2Cl)nc(=O)c2ccccc21	3%	6	-3%	-1.4%
CN(C)S(=O)(=O)c1ccc(S(=O)(=O)N(CC(=O)Nc2ccccc2)Cc2ccco2)cc1	-1%	3	1%	-0.9%
CS(=O)(=O)Oc1ccc2c(c1)O/C(=C\C=C\c1ccccc1)C2=O	3%	-9	?	?
C=CCN1C2CCCC1CC(NC(=O)Nc1cc(C)cc(C)c1)C2 (stereo not drawn)	-1%	9	-23%	1.8%
CCC1=NN(C(=O)C(=O)NCCc2ccccc2)C(O)(C(F)(F)F)C1 (stereo not drawn)	-1%	7	1%	1.7%
COc1ccc(C(=O)NC(=O)COC(=O)c2ccc(C)o2)cc1	/	/	17%	-3.6%
CCOC(=O)C1=C(C)N=c2s/c(=C3/C(=O)Nc4ccccc43)c(=O)n2C1c1ccc(C)cc1 (stereo not drawn)	-13%	-5	3%	2.1%
O=C(COC(=O)c1cc(=O)[nH]c2ccccc12)Nc1ccc(F)cc1	/	/	-8%	?
COc1ccc(N(CC(=O)O)S(=O)(=O)c2cccnc2)cc1	-6%	-23	-23%	1.9%
COc1ccccc1NS(=O)(=O)c1cc(NC(=O)c2sccc2C)ccc1N1CCOCC1	-1%	6	-15%	-5.3%
COc1ccc(-c2noc(C3CCCN(C(=O)CCc4ccccc4)C3)n2)cc1 (stereo not drawn)	-5%	-5	-5%	3.5%
CCOc1ccccc1OCCCOc1ccc(C)cc1Cl	-33%	6	2%	5.0%
N#Cc1ccccc1OCc1cccc(S(=O)(=O)N2CCOCC2)c1	/	/	27%	0.8%
COC(=O)c1cn(C(=O)/C=C/c2ccc(OC)c(OC)c2)c2ccccc12	-1%	1	?	?
C/C=C/C(=O)N1c2ccccc2C(C)=CC1(C)C	0%	12	0%	0.4%
COc1ccc(NS(=O)(=O)c2ccc3c(c2)CCC(=O)N3)c(OC)c1	-1%	6	-5%	1.5%
COc1ccccc1CNC(=O)CCC(=O)n1ncc2cc(C)ccc21	1%	/	-14%	1.7%
COc1cc(-c2nc(S(=O)(=O)c3ccc(C)cc3)c(N(C)C)o2)cc(OC)c1OC	1%	1	12%	0.2%
COc1ccc(S(=O)(=O)N(C)c2ccc(C(=O)N3CCOCC3)cc2)cc1OC	-15%	1	2%	-0.2%
NNC(=O)Cn1c(-c2nonc2N)nc2ccccc21	2%	3	-8%	?
Nc1ccc(C(=O)OCCCc2nc3cc4ccccc4cc3[nH]2)cc1	0%	-11	-27%	-1.5%
c1n[nH]c(NCc2ccc3c(c2)OCO3)n1	-5%	6	-2%	0.3%
C=CCNc1nc(N2CCCC2)nc2ccccc12	17%	?	28%	5.1%
Cc1nc2nc(Cc3ccccc3)[nH]n2c(=O)c1Cc1ccccc1	-5%	0	-4%	-0.9%
CS(=O)(=O)c1ccc(-c2sc3ccccc3c2C(=O)NCCCN2CCOCC2)cc1	/	/	-14%	?
CC(=O)NC(CC(=O)NCCCn1ccc2ccccc21)c1ccccc1 (stereo not drawn)	-2%	/	1%	-2.5%
CCn1c(=O)c(C(=O)NCc2ccccc2OC)c(O)c2ccccc21	-1%	/	4%	0.7%
O=c1[nH]c(CN2CCOCC2)nc2cc(Cl)ccc12	-5%	-3	1%	6.1%
CC(C)=C1C(=O)NN(c2ccc(F)c(Cl)c2)C1=O	0%	3	-16%	-2.8%

Full records as entered above. Order of screens: miR-21 reporter | GLA inh pH 4.5 | Rango release inh | Rango complex inh
COc1cc(-c2nc(S(=O)(=O)c3ccc(C)cc3)c(N(C)C)o2)cc(OC)c1OC across the screens: 1% | 1 | 12% | 0.2%
Cc1[nH]c2ccccc2c1C(=O)COC(=O)c1ccc([N+](=O)[O-])s1 across the screens: 0% | -1 | -20% | -0.4%

Next compounds.
Molecule	miR-21 reporter	GLA inh pH 4.5	Rango release inh	Rango complex inh
COc1ccc(NC(=O)C(=O)NNC(=O)c2ccc(Cl)cc2Cl)cc1	-2%	/	8%	5.7%
COc1cc(-c2nnc(NC(=O)CCS(=O)(=O)c3ccc(F)cc3)o2)cc(OC)c1OC	/	/	23%	0.6%
Cn1c(=O)c2c(nc(SCC(=O)c3cccs3)n2Cc2ccc(F)cc2)n(C)c1=O	0%	-10	8%	1.6%
CCOc1ccc(NC(=O)CN(C)C(=O)c2ccc(=O)[nH]c2)cc1OCC	-32%	/	-5%	-2.7%
CN(C)C(CNC(=O)c1cccc(S(=O)(=O)N2CCN(c3ccccc3)CC2)c1)c1ccccc1 (stereo not drawn)	/	/	2%	3.0%
C=Cc1cc2c(cc1O)CCC1C2CCC2(C)C(O)CCC12 (stereo not drawn)	/	/	7%	-4.8%
CCOc1ccc2oc(C(=O)OCC(=O)NC3CCCC3)c(C)c2c1	/	/	-5%	?
CC12CCC(C(=O)Nc3ccccc3Br)(C/C1=N\O)C2(C)C (stereo not drawn)	-3%	/	2%	-3.8%
Cc1ccc(Nc2ncnc(N)n2)cc1	-45%	3	7%	-0.4%
O=C(COc1ccc2c3c(c(=O)oc2c1)CCCC3)NCc1cccnc1	2%	/	2%	-1.5%
CC(=O)Nc1ccc(S(=O)(=O)Nc2cc(S(=O)(=O)N3CCCCC3)ccc2O)cc1	/	/	-1%	-1.8%
O=C(Cc1ccc([N+](=O)[O-])cc1)N1N=C2CCCCC2C1(O)C(F)(F)F (stereo not drawn)	6%	-2	-4%	0.1%
Cc1ccc(NC(=S)NCC(C)CSc2ccc(Cl)cc2)cc1 (stereo not drawn)	29%	2[21.1 µM]	-20%	1.3%
CCCc1c(C(=O)N/N=C/c2ccncc2)nnn1-c1nonc1N	2%	/	-1%	-0.3%
COc1cc(NC(=O)C2CCN(c3cnccn3)CC2)cc(OC)c1OC	4%	/	21%	-2.9%
CC1CCN(C(=O)c2cc(S(=O)(=O)N3CCCCC3)c[nH]2)CC1	0%	/	21%	-0.7%
Cc1nnc(SCC(=O)Nc2ccc(F)cc2F)n(N)c1=O	1%	/	10%	3.3%
COc1ccccc1N1CCN(C(c2cccs2)C(C)NS(=O)(=O)c2ccccc2)CC1 (stereo not drawn)	12%	1	-12%	-0.4%
CC1=NOC(=O)/C1=C/c1ccc(O)c(Br)c1	-2%	/	-8%	-1.6%
O=C(COC(=O)Cc1ccsc1)Nc1cccc(F)c1	/	/	-10%	-0.6%
O=S(=O)(NCC1CCN(c2ccc(S(=O)(=O)N3CCOCC3)cc2)CC1)c1ccc(F)cc1	26%	/	-15%	-2.1%
CCn1c(=N)n(CC(=O)c2ccc(OC)c(OC)c2)c2ccccc21	-9%	-2	1%	-0.4%
COCCC(=O)NC12CC3CC(CC(C3)C1)C2	-10%	4	-5%	0.4%
CC(C)NS(=O)(=O)c1ccc(NC(=O)C(C)OC(=O)C2CCC2)cc1 (stereo not drawn)	/	/	-3%	2.1%
CC(=O)N1c2c(cc(Br)cc2S(=O)(=O)N2CCN(c3ccccc3F)CC2)CC1C (stereo not drawn)	20%	/	9%	-1.4%
Cc1cc(C)n2c(SCc3ccc(Br)cc3)nnc2n1	-48%	1	3%	-0.9%
CCc1ccc(CN(C(=O)COc2c(C)cccc2C)C2CCS(=O)(=O)C2)cc1 (stereo not drawn)	-6%	/	-12%	-0.4%
O=C(COC(=O)C1CCN(c2ccc(C(F)(F)F)cn2)CC1)c1cccc(Br)c1	/	/	-9%	3.4%
CCCCCN(C(=O)CCC(=O)OCC(=O)N(C)C1CCCCC1)c1c(N)n(CCCC)c(=O)[nH]c1=O	/	/	-1%	0.1%
COc1cc(C(=O)NCCC(=O)NCc2ccc3c(c2)OCO3)cc(OC)c1OC	0%	-1	4%	-0.4%

(list continues)
Molecule	miR-21 reporter	GLA inh pH 4.5	Rango release inh	Rango complex inh
CN(Cc1cnn(C)c1)C(=O)c1ccc(OC2CCN(CCc3ccccc3)CC2)cc1	4%	4	1%	1.0%
COC(C(=O)Nc1ccnn1C1CCN(C(=O)c2ccc(C)cc2)CC1)c1ccccc1 (stereo not drawn)	-4%	/	0%	4.9%
Cc1ccc(-c2nc(N=Nc3ccc(O)cc3)n[nH]2)cc1	-24%	-15	11%	0.5%
COc1ccccc1-n1c(C)c(C(=O)O)c2cc(OC)c3ccccc3c21	0%	/	3%	0.0%
O=C(NCc1ccco1)c1cc2n(n1)C(C(F)(F)F)CC(c1ccc(Br)cc1)N2 (stereo not drawn)	-9%	3	2%	-0.3%
CC1(C)CC[C@]2(C(=O)n3ccnc3)CC[C@]3(C)[C@H](C(=O)C=C4[C@@]5(C)C=C(C#N)C(=O)C(C)(C)[C@@H]5CC[C@]43C)[C@@H]2C1	/	/	-5%	1.1%
O=c1oc2ccccc2c(N2CCCC2)c1CN1CCCC1	-6%	8	1%	-4.6%
COc1cc(/C=C/c2nc(-c3ccccc3O)n[nH]2)cc(OC)c1OC	-2%	-12	3%	-1.2%
CN(C(=O)c1cccc(NC(=O)c2cccs2)c1)c1ccccc1	-1%	/	2%	0.8%
CCNC(=O)/C(C#N)=C/c1c(N2CC(C)OC(C)C2)nc2ccccn2c1=O (stereo not drawn)	-3%	1	-23%	?
CNC(=O)CSc1nnc(-c2ccco2)n1-c1cccc(C)c1	-4%	/	-8%	?
CCc1ccc(C(=O)COC(=O)CNC(=O)CNC(=O)Cc2ccccc2)cc1	1%	-4	-2%	3.2%
COc1ccc(C(=O)N2CCN(Cc3ccccc3[N+](=O)[O-])CC2)cc1	0%	/	11%	5.4%
O=C1NC(=S)N(c2cccc(Cl)c2)C12CCCCC2	3%	3	2%	2.9%
CCn1c(C(C)NS(=O)(=O)c2ccc(Cl)cc2)n[nH]c1=S (stereo not drawn)	0%	/	10%	3.4%
Cc1ccc(-n2nc3c(c2NC(=O)CC(C)C)CS(=O)(=O)C3)c(C)c1	0%	/	10%	0.2%
CSc1ccc(CN(C)Cc2nc3cc(C(F)(F)F)ccc3c(=O)[nH]2)cc1	-7%	-2	-22%	3.2%
CC(=O)Nc1ccc(CN2CCN(CC=C(C)C)C(CCO)C2)cc1 (stereo not drawn)	0%	3	?	?
Cc1nn(C(C)C(=O)NCC2CCCO2)c(C)c1[N+](=O)[O-] (stereo not drawn)	-1%	7	33%	-1.7%
CCOC(=O)C1=NN(C(=O)COc2ccccc2)C(O)(c2ccc(Cl)cc2)C1 (stereo not drawn)	0%	-3	-7%	6.0%
Cc1c(Cl)cnc(NC(=O)CSc2nnc3ccccn23)c1Cl	-38%	-1	1%	0.9%
CCCn1c(C)cc(C)c(C#N)c1=O	-10%	-3	-13%	1.7%
Cc1c[nH]c2ccccc12	/	/	12%	6.2%
CCc1c(C)sc2nc(SCC(=O)Nc3cc(C)on3)n(CCOC)c(=O)c12	0%	4	-9%	0.8%
Clc1cccc(-c2cc3nc4c(c(N5CCOCC5)n3n2)CCCC4)c1	-49%	5	-1%	0.8%
Cc1ccc(NC(=S)NC(C)CCc2ccccc2)cc1C (stereo not drawn)	8%	4	-2%	-0.4%
COc1ccc(N2CCN(C(=O)COC(=O)COc3cccc(C(F)(F)F)c3)CC2)cc1	/	/	-7%	?
COc1cc(OC)cc(C(=O)Nc2cccc(N3CCCC3)c2)c1	-8%	7	1%	-3.8%
